# MgrA DNA FP: S. aureus MgrA-DNA binding modulation; fluorescence polarization; inhibition, %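 (about 10 µg/mL by stock and volumes)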; 84,000 compounds, 0.13% hits;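 active means above 50% in either of two replicates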;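 further: 0% = protein plus DNA without compound and 100% = DNA alone without protein; higher means less MgrA bound to DNA so lower polarization; one replicate is shown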
# S aureus helic: blocks Staphylococcus aureus DNA helicase; purified S. aureus helicase, fluorescence unwinding assay; about half of the hits fall short of the stated cut; inhibition, %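 (tested at about 80 µM)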; 120,000 compounds, 0.05% hits;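 active means both duplicates at 50% or more, or one of them with a favoured structure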;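 further: 0% = mean of negative control wells and 100% = mean of positive control wells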
# An asterisk follows results filed as active; x = no result given.
MgrA DNA FP	S aureus helic	SMILES
x	-6.0	CCOC(=O)C1=C(C)N(c2ccc(OC)cc2)C(=O)/C1=C\c1ccco1
x	-4.0	NC(=O)COC(=O)CC1CC2CCC1C2 (stereo unspecified)
x	0.0	COC(=O)c1sc(NC(C)=O)nc1C
0.9	x	Cn1c(-n2c(CN3C(=O)c4ccccc4C3=O)nc3ccccc3c2=O)nc2ccccc21
x	-10.0	CC(C)c1ccccc1OCC(O)CN1CCCCC1 (stereo unspecified)
x	12.0	CCOc1ccc(-c2nn(C)c(C)c2Oc2ccccc2)c(O)c1
x	1.0	COC(=O)c1ccc(C2C3=C(Nc4nnnn42)C(C2CCCCC2)CCC3)cc1 (stereo unspecified)
x	-13.0	CCn1c(SCc2nnc(-c3ccccc3)o2)nnc1-c1ccccc1
x	-7.0	CC(=O)N1CCN(c2ccc(Oc3ccc(C(F)(F)F)cn3)cc2)CC1
-2.4	3.0	O=S(=O)(/C=C/c1ccccc1)N1CCOCC1
0.4	4.0	CCNC(=O)c1c(O)c2cccc3c2n(c1=O)CC3
-1.6	2.0	CNC(=O)c1cc(S(=O)(=O)N2CC(C)OC(C)C2)ccc1N1CCOCC1 (stereo unspecified)
-1.6	x	COc1cccc(NC(=S)N(CCC#N)C2CCCCC2)c1
0.1	x	O=S(=O)(c1cccc(C(F)(F)F)c1)N1CCCCC1
-0.2	12.0	CC(C)NC(=O)CCCc1ccccc1
x	-20.0	CCOC(=O)c1sc2nc(CNC(C)C)nc(NC(C)C)c2c1C
1.6	x	Cc1cccc(NC(=O)N2CCCC2c2cccnc2)c1 (stereo unspecified)
x	5.0	O=C(NC1CCCC1)c1noc2ncnc(N3CCOCC3)c12
-1.9	16.0	COc1ccccc1NC(=O)Nc1ccc2c(c1)nc(C)n2C
x	-5.0	CC(=O)Nc1ccc(/C=N/NC(=S)Nc2cccnc2)cc1
-1.8	-5.0	Fc1ccc(NC(=S)Nc2ccccc2)cc1
x	-7.0	N#Cc1c(-c2ccccc2)cc2nc3ccccc3n2c1N
x	4.0	O=S1(=O)CCC(N/N=C/c2ccccc2O)C1 (stereo unspecified)
x	20.0	CN(C)S(=O)(=O)c1ccc(N2CCCC2)c(C(=O)OCCCOc2ccc(F)cc2)c1
3.2	12.0	Cc1cccn2c(=O)c3cc(C(=O)N4CCN(C)CC4)c(=N)n(Cc4cccnc4)c3nc12

# Gathered by group, those above containing a halogen (four)
MgrA DNA FP	S aureus helic	SMILES
x	-7.0	CC(=O)N1CCN(c2ccc(Oc3ccc(C(F)(F)F)cn3)cc2)CC1
0.1	x	O=S(=O)(c1cccc(C(F)(F)F)c1)N1CCCCC1
-1.8	-5.0	Fc1ccc(NC(=S)Nc2ccccc2)cc1
x	20.0	CN(C)S(=O)(=O)c1ccc(N2CCCC2)c(C(=O)OCCCOc2ccc(F)cc2)c1

# (cont.)
MgrA DNA FP	S aureus helic	SMILES
x	-11.0	CC(C)(C)OC(=O)NN=C1CCCC1
x	18.0	Cn1c(=O)[nH]c(=S)c2nc(-c3ccc(F)cc3)cnc21
-0.8	-4.0	CC(C)(C)c1nc(C#N)c(N2CCC(C(N)=O)CC2)o1
-0.3	-2.0	OCC1CCCN1Cc1ccccc1C(F)(F)F (stereo unspecified)
x	-22.0	OC(CN1CCN(c2ccc(C(F)(F)F)cn2)CC1)c1ccc(F)cc1 (stereo unspecified)
x	5.0	COC(=O)c1ccccc1S(=O)(=O)NCC#N
-2.6	-9.0	O=C1CC(c2ccco2)CC(O)=C1C=NCC1NCCc2ccccc21 (stereo unspecified)
1.0	13.0	Cc1c(C(=O)N2CCN(C)CC2)oc2c1C(=O)CC(C)(C)C2
-1.2	-13.0	O=C(O)CNC(=O)c1ccc(Cl)c(Cl)c1
15.4	12.0	COc1nc(SC)nc2sc3c(c12)CCC3
-3.6	16.0	Cc1ccccc1Oc1ccc(CN)cc1
0.3	0.0	N#CCCCn1c(=O)oc2ccccc21
1.2	-9.0	C=CCN(c1ccc(C(=O)Nc2ccc(OC)cc2OC)cc1)S(C)(=O)=O
-0.5	-30.0	O=C(OCc1ccc2c(c1)OCO2)c1c(F)cccc1Cl
-1.8	10.0	Cc1ccc2c(c1)N(Cc1cccc(C(F)(F)F)c1)C(=O)C(C)O2 (stereo unspecified)
x	0.0	CC1CCCC(C)N1C(=O)c1csc2c1CCCC2 (stereo unspecified)
-1.2	2.0	N#Cc1ccc(C=Nc2cccc3c(=O)[nH][nH]c(=O)c23)cc1
x	12.0	CC(C)(C)c1ccc(S(=O)(=O)N2CCCC(C(=O)O)C2)cc1 (stereo unspecified)
1.9	2.0	CC1(C)CC(=O)C(C2c3ccccc3Oc3ccccc32)C(=O)C1
2.8	x	CCC(=O)N1c2ccccc2NC2=C(C(=O)CC(C)(C)C2)C1c1ccc(-c2cccc([N+](=O)[O-])c2)o1 (stereo unspecified)
-2.4	x	O=C(O)c1ccc(C(F)(F)F)cc1C(F)(F)F
1.9	x	CN1C(=O)CN(C2CCCCC2)C(=O)c2ccccc21
x	5.0	CN1/C(=C2\C=NN(c3ccccc3)P2(=O)N2CCCC2)C(C)(C)c2ccccc21 (stereo unspecified)
x	-6.0	COc1ccc(CCNC(=O)CSc2c[nH]c3ccccc23)cc1OC
x	2.0	O=C(NCc1cccs1)c1cnc2sccn2c1=O

# The final 7 entries of the section before open the next one:
MgrA DNA FP	S aureus helic	SMILES
1.9	2.0	CC1(C)CC(=O)C(C2c3ccccc3Oc3ccccc32)C(=O)C1
2.8	x	CCC(=O)N1c2ccccc2NC2=C(C(=O)CC(C)(C)C2)C1c1ccc(-c2cccc([N+](=O)[O-])c2)o1 (stereo unspecified)
-2.4	x	O=C(O)c1ccc(C(F)(F)F)cc1C(F)(F)F
1.9	x	CN1C(=O)CN(C2CCCCC2)C(=O)c2ccccc21
x	5.0	CN1/C(=C2\C=NN(c3ccccc3)P2(=O)N2CCCC2)C(C)(C)c2ccccc21 (stereo unspecified)
x	-6.0	COc1ccc(CCNC(=O)CSc2c[nH]c3ccccc23)cc1OC
x	2.0	O=C(NCc1cccs1)c1cnc2sccn2c1=O
x	-16.0	CC(=O)N1CCc2c(sc(NC(=O)c3ccccc3)c2C(N)=O)C1
x	1.0	Cc1cc(N/N=C/C2=C(N3CCOCC3)C(=C\c3ccc(Cl)cc3Cl)/CC2)n[nH]1
x	-13.0	NS(=O)(=O)c1ccc(NC(=O)Cc2ccccc2F)cc1
x	-2.0	CNS(=O)(=O)c1cccc(C(=O)NC2CCCc3ccccc32)c1 (stereo unspecified)
-2.2	x	CC1(COc2ccc(CC3SC(=O)NC3=O)cc2)CCCCC1 (stereo unspecified)
x	12.0	c1ccc2c(c1)CCC/C2=N\NC1=NCCN1
-10.0	6.0	O=C(O)C(NS(=O)(=O)c1ccccc1)C(O)c1ccccc1 (stereo unspecified)
-1.9	8.0	CC(C)(C)C1(O)C=C(O)C(=O)N1c1cccnc1 (stereo unspecified)
x	10.0	Oc1ccc(N2CCN(c3nc(-c4cccnc4)nc4ccccc34)CC2)cc1
0.5	-2.0	Cc1c(N=CC2CCCN3CCCCC23)c(=O)n(-c2ccccc2)n1C (stereo unspecified)
-1.3	x	CC(C)(C)C(=O)Oc1ccc(-c2csnn2)cc1
x	-3.0	Cc1ccc(N2C(=O)/C(=C/N(C)C)c3ccccc3C2=O)cc1
x	10.0	CCOC(=O)Nc1ccc2c(CN3CCN(c4ccc(OC)cc4)CC3)cc(=O)oc2c1
0.1	x	Cc1oc(C(C)(C)C)cc1C(=O)C(C#N)=C1SCCS1
x	6.0	O=C(O)c1ccc(NC(=O)c2cc3c([nH]c2=O)CCCC3=O)cc1
x	4.0	Cn1c(=O)c2c(nc(SCC(=O)Nc3ccccc3)n2C)n(C)c1=O
-1.4	x	COc1ccc(OC(=O)c2c(Cl)cccc2Cl)cc1
-0.9	x	CC1(C)CN(c2ccc(OCc3ccccc3)cc2)C1=O
x	-13.0	COC(=O)c1ccc(-n2c(C)cc(/C=N/N(C)C)c2C)cc1
x	7.0	CC(=O)N1CCC(N(CCN2CCOCC2)C(=S)Nc2cccc(C(F)(F)F)c2)CC1
3.6	4.0	Nc1ccc(N=C2C(=O)Nc3ccccc32)cc1
x	-116.0	COCCCn1c(=O)c(C#N)cc2c(=O)n3ccccc3nc21
x	0.0	Cc1cc(=O)n2nc(C)sc2n1
2.7	x	O=C(O)CCC(=O)N1N=C(c2c(-c3ccccc3)c3cc(Cl)ccc3[nH]c2=O)CC1c1ccco1 (stereo unspecified)
-1.1	x	CCOC(=O)CSc1nc(NC)c2c3c(sc2n1)CCCC3
x	8.0	CN1CCN(CCCNC(=O)C2C3C=CC4(CN(Cc5ccccc5Cl)C(=O)C24)O3)CC1 (stereo unspecified)
0.4	5.0	O=C(NCc1cccc(F)c1)C1CC(O)CN1C(=O)Nc1ccccc1 (stereo unspecified)
1.2	8.0	O=C(NCCOc1ccccc1Cl)c1ncn[nH]1
3.8	x	CCNC(=S)Nc1ccc(NC(=O)c2ccccc2O)cc1
-1.5	x	COc1cc(/C=C(\C#N)c2ccccc2)cc(OC)c1OC
0.1	7.0	c1cnc(N2CC[N+]3(CCCC3)CC2)nc1
4.1	x	CN(C)/C=N/S(=O)(=O)c1ccc(Cl)c(Cl)c1
3.2	x	CCOC(=O)C1=C(C)OC(N)=C(C#N)C1c1ccc(O)cc1 (stereo unspecified)
x	26.0	O=C1c2ccccc2NC(c2ccco2)N1O (stereo unspecified)
x	17.0	OCc1nc2ccccc2[nH]1
0.3	19.0	COc1ccc(S(=O)(=O)N2C3CCC2CC(NC(=O)NC2CCCCC2)C3)cc1 (stereo unspecified)
x	29.0	O=C(c1ccco1)N1CCN(S(=O)(=O)c2ccc(Cl)c(C(F)(F)F)c2)CC1
0.7	2.0	CN1C(=O)c2ccccc2C(C(=O)NCCCN2CCCC2=O)C1c1cn(C)c2ccccc12 (stereo unspecified)
3.0	x	O=S(=O)(Nc1nc(-c2ccc(F)c(F)c2)cs1)c1cccs1
-3.5	10.0	Cc1nc2cc(N3CCN(C)CC3)c(NC(=O)C3CC3)cc2c(=O)n1Cc1ccccc1
-2.2	-2.0	O=C(CCc1nc2ncccc2c(=O)n1Cc1ccccc1Cl)N1CCN(c2ccccc2)CC1
x	15.0	CCc1ccc(-c2cn3nc(C)c(C)nc3n2)cc1
x	-18.0	CCOC(=O)c1ccc(NC(=O)c2ccc3ncsc3c2)cc1
2.6	x	NNC(=O)c1cc(=S)nc[nH]1
x	5.0	CCc1nc2ccc(Oc3ccc4nc(CC)[nH]c4c3)cc2[nH]1
x	-32.0	COc1ccc2c(C)cc(N3CCC(C(N)=O)CC3)nc2c1
x	5.0	Cc1cnc2c(c1SCC(=O)NC1CCCC1)c(=O)n(C)c(=O)n2C
x	15.0	CS(=O)(=O)c1ccc2nc(NC(=O)COc3ccccc3)sc2c1
0.1	6.0	Cc1nc(CCNS(=O)(=O)c2cccs2)cs1
0.0	-11.0	CC1(C)CC(n2[nH]c(=O)cc2N)CCO1 (stereo unspecified)

# (next part)
MgrA DNA FP	S aureus helic	SMILES
x	1.0	COc1ccc(-n2cc(-c3ccccc3)c3c(NN4CCOCC4)ncnc32)cc1
x	-3.0	CC(NC(=O)C12CC3CC(CC(O)(C3)C1)C2)c1ccccc1 (stereo unspecified)
x	-8.0	CCNC(=S)N/N=C/c1ccccc1C(=O)O
x	-19.0	CCOC(=O)c1sc(NC(=O)CSc2ccc(C)cc2)nc1C
-0.1	-1.0	O=C(COC(=O)c1n[nH]c2ccccc12)NC(c1ccccc1)c1ccccc1
x	-10.0	COc1cccc(-c2noc(NCCN3CCOCC3)n2)c1
-0.7	x	COc1ccc(COCC(O)CS(=O)(=O)Cc2ccccc2)cc1 (stereo unspecified)
1.6	2.0	CC(C)CN(CC(C)C)S(=O)(=O)c1ccc(C(=O)O)cc1
x	14.0	CCCc1cc(C(=O)Nc2ccccc2C(=O)OC)no1
1.9	-10.0	CCc1ccccc1NC(=O)CCC(=O)O
-2.2	x	Cc1ccc(C(O)CSc2nnc(-c3ccc4ccccc4c3)n2C)cc1 (stereo unspecified)
-0.1	7.0	C=CCNc1ncnc2c1c(-c1ccccc1)cn2-c1ccc(OCC)cc1
x	-7.0	COc1ccc(CNC(=O)CSc2nc3cc(Cl)ccc3o2)cc1OC
x	0.0	CC1(C)CC(=NNC(N)=S)CC(C)(C)N1
4.0	10.0	O=C1c2ccccc2NC(c2ccncc2)N1c1ccccn1 (stereo unspecified)
x	19.0	COc1ccc2oc(C)c(C(=O)Cn3ccnc3)c2c1
1.4	19.0	CCCCC(=O)Nc1ccc2oc(-c3ccc(O)c(Br)c3)nc2c1
x	-21.0	CNC(=O)CCCn1c(C)c2cnn(-c3ccccc3)c(=O)c2c1C
x	-20.0	CCn1nc(C(=O)OCCCCN2C(=O)c3ccccc3C2=O)c2ccccc2c1=O
0.1	x	COc1ccnc(CS(=O)c2nc3ccc(OC(F)F)cc3[nH]2)c1OC (stereo unspecified)
x	15.0	Cn1c(COc2cccc3cccnc23)nnc1SCC(=O)O
x	-7.0	CC(=O)Nc1ccc(C(=O)OCC(=O)N(C)C2CCS(=O)(=O)C2)cc1 (stereo unspecified)
x	24.0	CC(=O)O/N=C(\N)c1ccc(-c2csnn2)cc1
x	3.0	O=C(c1cc(-c2ccco2)[nH]n1)N1CCN(c2cccc(Cl)c2)CC1
-2.1	x	Cc1ccc(N/N=C2/CCCNC2=O)cc1
-1.9	-5.0	OC(COc1ccc2cc(Br)ccc2c1)Cn1cccn1 (stereo unspecified)
1.1	x	COc1ccccc1C1CCN(C(=O)c2ccc(Cl)cc2)CC1
x	-42.0	O=C1C=C(NCc2ccncc2)CC(c2ccccc2)C1 (stereo unspecified)
x	7.0	COC(=O)[C@H](C)NC(=O)c1ccc(S(=O)(=O)N2CCOCC2)cc1
x	11.0	CSc1nnc(SCC(=O)NC(=O)c2cccn2C)s1
x	-1.0	Cc1cc(=O)[nH]c(N/N=C2/CCc3ccccc3C2)n1
10.4	9.0	CCC(=O)Nc1sc(C)c(CC)c1C(=O)NC1CC1
4.5	x	CCOC(=O)C1=C(C)N=c2s/c(=C\c3ccc(Br)o3)c(=O)n2C1c1ccccc1OC (stereo unspecified)

# These rows are one share of the data. The share of hits here may be higher or lower than overall.
